Screening results from PubChem BioAssay.
Cathepsin G inh: blocks human cathepsin G enzyme activity | 62,000 compounds, 0.2% hits | P08311 | inhibition, % at 5 µM (by protocol) | purified enzyme, AMC-tetrapeptide fluorescence, pooled mixtures;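 active = inhibition above 20% in each of the two mixture wells holding the compound; inactive = inhibition of 20% or less in either well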;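 note: 0% = enzyme control without mixture and 100% = blank lacking enzyme; strong numbers were not always called active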
Target sequence (P08311 21-244 limits assumed): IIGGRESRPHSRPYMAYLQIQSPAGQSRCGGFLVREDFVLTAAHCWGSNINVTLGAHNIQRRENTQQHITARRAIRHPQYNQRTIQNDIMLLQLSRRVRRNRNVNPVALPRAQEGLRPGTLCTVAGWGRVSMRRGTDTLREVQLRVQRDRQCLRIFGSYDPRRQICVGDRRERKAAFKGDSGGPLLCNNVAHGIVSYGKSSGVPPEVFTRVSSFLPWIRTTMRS
AP ELISA ortho: alternative pathway complement inhibition, orthogonal assay | 62,000 compounds, 0.08% hits | Human serum alternative complement pathway, LPS-coated ELISA, C3 deposition; tested in compound mixtures | inhibition, % at 5 µM;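 active = inhibition above 30% in each of the two pooled mixtures holding the compound, so the lower value exceeds 30%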;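 note: 0% = serum in Mg-EGTA without compound and 100% = EDTA serum blank; some compounds past the cut are filed as inactive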
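Test system: human serum complement alternative pathway, C3 deposition onto LPS / Medium: Mg2+-EGTA GVB++ buffer containing human serum at 1:15 dilution / Probe or stimulus: Plate-bound LPS / Times: 1 h at 37 °C / Signal: ELISA with HRP anti-human C3 antibody, TMB substrate, absorbance 450 nm / Measure: percent inhibition / Repeats: two pool placements per compound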
CatB block: blocks human cathepsin B protease activity; P07858; purified cathepsin B, fluorogenic substrate, fluorescence; inhibition, %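 (tested at 10 µM)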; 63,000 compounds, 0.1% hits; AID 453; in the data active = inhibition above about 21%;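 note: 0% = enzyme with no compound and 100% = no enzyme blank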
CatB mixtures: inhibitors of human cathepsin B in compound mixtures | 62,000 compounds, 0.06% hits | Purified cathepsin B, AMC dipeptide fluorescence | P07858 | inhibition, %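 (ten-compound pools at 5 µM per compound and 50 µM total)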 | AID 488; in the data active = inhibition above about 22%, passing the limit was not always enough;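 note: 0% = enzyme without compound and 100% = no enzyme blank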
CatL block: inhibitors of human cathepsin L; AID 460; P07711; 58,000 compounds, 0.17% hits; inhibition, %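 (tested at 10 µM)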; purified cathepsin L, fluorogenic substrate, fluorescence; in the data active = inhibition above about 45%;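 note: 0% = enzyme with no compound and 100% = no enzyme blank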
Target sequence (P07711 114-288 limits assumed): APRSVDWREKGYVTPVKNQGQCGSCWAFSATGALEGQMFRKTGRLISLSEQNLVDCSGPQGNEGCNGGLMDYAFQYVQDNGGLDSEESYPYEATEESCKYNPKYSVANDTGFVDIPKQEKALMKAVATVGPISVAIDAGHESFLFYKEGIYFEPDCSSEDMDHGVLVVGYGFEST
Target sequence (P07711 292-333 limits assumed): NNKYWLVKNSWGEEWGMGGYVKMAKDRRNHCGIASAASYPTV
CatS block: blocks human cathepsin S protease activity; P25774; recombinant cathepsin S, AMC dipeptide fluorescence, pooled mixtures; inhibition, %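 (tested at 5 µM per compound within 10-compound mixtures)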; 62,000 compounds, 0.06% hits; AID 501; in the data active = inhibition above about 32%, passing the limit was not always enough;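 note: 0% = enzyme without compound and 100% = blank without enzyme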
Active calls of the source: *; . = no result given. An excerpt; rates above refer to the full screens.

1: COc1ccc(/C(O)=C2\C(=O)C(=O)N(c3cc(C)on3)C2c2ccc(OC)c(OC)c2)cc1OC (centres undefined)
2: COC(=O)c1cc2ccsc2n1Cc1cc(=O)n2ccccc2n1
3: CC(C)(C)N(Cc1ccccc1)C(=O)c1ccc2c(c1)OCCO2
4: COc1ccccc1C(=O)Oc1cc(N)n(S(=O)(=O)c2ccc(C)cc2)n1
5: CCOC(=O)C1=C(C)NC2=C(C(=O)CC(c3ccc(OC)c(OC)c3)C2)C1c1ccc(C)o1 (centres undefined)
6: O=C(CCc1ccc(CCC(=O)c2cccs2)s1)c1cccs1
7: CCC(C)(C)n1nnnc1C(c1cccs1)N1CCc2ccccc21 (centres undefined)
8: CCCOC(=O)c1cccc(NC(=O)C(C)(C)C)c1
Compound,1,2,3,4,5,6,7,8
Cathepsin G inh,13.6,0.5,-39.0,1.2,10.2,-0.4,12.5,9.5
AP ELISA ortho,8.4,16.8,-10.1,9.5,-0.4,3.1,33.5,14.9
CatB block,-2.2,-7.0,-3.0,11.5,1.6,0.5,0.8,2.8
CatB mixtures,4.3,8.6,-0.4,17.8,1.5,-1.9,4.7,2.5
CatL block,8.3,-5.0,7.9,-3.9,0.6,2.3,-6.6,.
CatS block,-1.2,-5.4,3.7,-4.7,7.5,11.1,5.8,-0.2

The list goes on (4 carried over from the part before).
5: CCOC(=O)C1=C(C)NC2=C(C(=O)CC(c3ccc(OC)c(OC)c3)C2)C1c1ccc(C)o1 (centres undefined)
6: O=C(CCc1ccc(CCC(=O)c2cccs2)s1)c1cccs1
7: CCC(C)(C)n1nnnc1C(c1cccs1)N1CCc2ccccc21 (centres undefined)
8: CCCOC(=O)c1cccc(NC(=O)C(C)(C)C)c1
9: CN(Cc1ccccc1)C(=O)c1ccc2c(c1)OCCO2
10: CCC(C)(C)n1nnnc1CN1CCN(c2nc3cc(OC)ccc3cc2C#N)CC1
11: CCCN1C(=O)c2ccc(C(=O)NC3CCCCC3)cc2C1=O
12: CC(CC(=O)c1cccs1)CC(=O)c1cccs1
13: COCCn1c(=NC(=O)CSC(C)=O)sc2cc(OC)ccc21
14: COC(=O)c1ccc(COC(=O)c2c(C)nn(Cc3ccccc3Cl)c2Cl)o1
15: O=C(Oc1oc(-c2ccco2)nc1C=Nc1ccccc1)c1ccco1
16: CCn1c(COc2ccc(Cl)cc2)nnc1SCC(=O)Nc1ccc2c(c1)OCCO2
Compound,5,6,7,8,9,10,11,12,13,14,15,16
Cathepsin G inh,10.2,-0.4,12.5,9.5,3.1,9.5,-4.4,-1.9,-9.7,5.4,11.4,4.9
AP ELISA ortho,-0.4,3.1,33.5,14.9,-5.5,6.2,12.5,13.4,8.1,5.5,19.9,19.8
CatB block,1.6,0.5,0.8,2.8,-0.3,-0.8,-2.6,-1.8,1.2,-6.1,21.8*,3.6
CatB mixtures,1.5,-1.9,4.7,2.5,-2.7,5.4,3.4,-5.4,-2.9,-1.0,11.4,2.1
CatL block,0.6,2.3,-6.6,.,.,-6.0,0.7,-0.5,.,7.3,17.6,0.8
CatS block,7.5,11.1,5.8,-0.2,11.4,-9.1,-4.0,-2.0,-1.8,20.1,2.4,-3.1

Down the list, quoted from above:
CatS block for nos. 9 to 16 → 11.4, -9.1, -4.0, -2.0, -1.8, 20.1, 2.4, -3.1
CatB mixtures for nos. 9 to 16 → -2.7, 5.4, 3.4, -5.4, -2.9, -1.0, 11.4, 2.1
AP ELISA ortho for nos. 9 to 16 → -5.5, 6.2, 12.5, 13.4, 8.1, 5.5, 19.9, 19.8

The results go on.
17: C=CCn1c(CCNC(=O)c2cccs2)nnc1SCC(=O)Nc1cccc(C(C)=O)c1
18: COc1ccc(S(=O)(=O)N2CCCN(CCC(=O)Nc3cccc(C(F)(F)F)c3)CC2)cc1
19: O=C(CSc1ccc2c(c1)OCCO2)Nc1ccc(Cl)cn1
20: Cc1ccc(-c2nnc(SCC(=O)Nc3nc4c(s3)CCCC4)n2C)cc1
21: CCOc1cc(S(=O)(=O)NCc2ccc3c(c2)OCO3)c(C)cc1C
22: CCSc1nnc2c(n1)[nH]c1c(C)cccc12
23: Cc1ccccc1OCc1nc(-c2ccc(NC(=O)c3ccc4c(c3)OCO4)cc2)no1
24: O=S(=O)(Nc1cccc(C(F)(F)F)c1)c1cnc[nH]1
25: CSc1nc(-c2ccco2)nn1C(=O)c1ccc(C)cc1
Compound,17,18,19,20,21,22,23,24,25
Cathepsin G inh,10.9,7.4,8.4,-11.6,0.3,1.4,3.7,-1.4,62.5*
AP ELISA ortho,18.6,17.3,10.3,-12.8,9.8,-1.0,15.5,-11.8,20.4
CatB block,2.3,2.3,-0.5,6.8,-3.5,0.5,-3.3,6.8,1.0
CatB mixtures,3.5,4.8,1.9,-0.2,-3.2,8.6,8.7,1.5,4.5
CatL block,-4.9,-2.3,4.9,.,2.8,10.7,-3.9,8.4,.
CatS block,-0.5,4.9,-11.0,2.9,4.1,22.7,-12.4,6.8,-3.0
